High-throughput results from PubChem.
Bfl-1 A1 inh: inhibitors of the anti-apoptotic protein A1, read as caspase activation; MEF A1-2A-BIM cells, Caspase-Glo 3/7 luminescence, 3 h; percent of clofoctol response, vehicle zero; caspase activation, % (concentration not given with the values); hit rate 0.066% among 330,000;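 active = over half of replicate activation scores above 10%, or exactly half above 10 with the replicate mean above 10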;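 also: wells of about 30 µL received 50 nL stock; many hits fall short of the cut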
T cruzi inh: blocks replication of Trypanosoma cruzi; hit rate 1.4% among 300,000; T. cruzi beta-gal in NIH3T3, luminescence, 90 h; inhibition, % (concentration not given with the values);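 active = mean inhibition across valid replicates above about 55%, limit read from the data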;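 also: signal also drops with host cell toxicity which is not excluded here; 0% = plate median of DMSO wells and 100% = zero luminescence signal; higher percent means less beta-gal luminescence so fewer parasites; stock transfer was 50 nL into about 50 µL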
FGF22 binding: binders of recombinant human FGF22 by thermal shift | SYPRO orange fluorescence; percent of sucrose octasulfate shift, DMSO zero | hit rate 1.5% among 340,000 | Q9HCT0 | calls only at 9.99 µM | AID 651658;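 active = melting point raised past a set limit in the mean and every replicate; three in four hits are not shown here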
Target sequence (Q9HCT0 whole entry, looked up): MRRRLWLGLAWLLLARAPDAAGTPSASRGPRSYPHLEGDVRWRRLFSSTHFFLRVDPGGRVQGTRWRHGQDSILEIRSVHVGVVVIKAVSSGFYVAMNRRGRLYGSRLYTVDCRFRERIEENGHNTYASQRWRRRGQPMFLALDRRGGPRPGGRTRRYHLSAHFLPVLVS
Ecoli rRNA inh: selective bacterial rRNA inhibition in E. coli; E. coli WT GFP vs humanized-ribosome RFP mutants, fluorescence, 24 h; active compounds read low; DMSO median 0, no signal -100; GFP signal change (wild-type ribosome), % (no concentration beside the values); hit rate 1.6% among 350,000; AID 720706;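 active = significant combined selectivity score with lowered wild-type GFP, culture density cut under 30%, mutant RFP and density less affected; inactive = any of these conditions unmet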; also: one replicate is shown; some compounds called inactive have numbers as strong as hits
E coli growth: blocks Escherichia coli growth. OD600, 23 h; active compounds read low. OD600 absorbance (concentration not given with the values). hit rate 0.21% among 330,000. AID 1053175;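 active = OD600 absorbance below the run mean of sample wells minus 3.6 SD, in any replicate, cut at about 0.56 in these data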;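 also: stock transfer was 300 nL into about 60 µL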
UCH37 DUB inh: human UCH37 deubiquitinating enzyme inhibition; Q9Y5K5; purified proteasome/UCH37, Ub-AMC cleavage fluorescence; inhibition, % (test concentration not listed); hit rate 0.33% among 330,000; AID 588478;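 active = mean of two replicates above 20%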;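 also: 0% = compound-free wells with enzyme and 100% = wells lacking proteasome; stock transfer was 100 nL into about 20 µL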
Target sequence (Q9Y5K5 whole entry, looked up): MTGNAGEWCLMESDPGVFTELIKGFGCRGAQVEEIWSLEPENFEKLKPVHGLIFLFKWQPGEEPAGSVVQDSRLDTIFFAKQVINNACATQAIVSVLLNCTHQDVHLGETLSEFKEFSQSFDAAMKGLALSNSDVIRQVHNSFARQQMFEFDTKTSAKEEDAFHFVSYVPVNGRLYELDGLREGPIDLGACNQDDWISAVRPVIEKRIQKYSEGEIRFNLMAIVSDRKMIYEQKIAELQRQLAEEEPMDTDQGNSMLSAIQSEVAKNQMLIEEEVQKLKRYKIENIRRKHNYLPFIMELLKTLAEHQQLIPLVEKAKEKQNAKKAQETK
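Material: Human UCH37 enzyme supplied as purified proteasome complex | Schedule: 30 min preincubation with enzyme, 25 min cleavage at room temperature | Detection: AMC fluorescence 355/460 nm | Measure: % inhibition of Ub-AMC cleavage fluorescence | Controls: Wells without proteasome as full block, compound-free enzyme plus substrate as uninhibited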
Beta apoptosis: beta cell apoptosis inhibition | INS-1E cytokine-induced death, ATP luminescence, 48 h; percent of positive-control rescue, neutral wells zero | AID 435005 | protection from apoptosis, % (no concentration beside the values) | hit rate 0.8% among 300,000;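 active = all replicates at 75% or more, or half of them and the mean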;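 also: 0% = cytokine-treated negative control wells and 100% = positive control rescue; higher means more ATP so stronger rescue from cytokine killing; wells of about 40 µL received 100 nL stock; the first replicate is given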
AF4-AF9 inh: MLL-AF4/AF9 protein interaction inhibition. P42568. AlphaScreen, biotin-AF4 peptide binding to FLAG-AF9. inhibition, % at 10 µM. hit rate 0.47% among 350,000. AID 651704;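 active = every replicate reaching a set inhibition limit, whatever the replicate mean, cut at about 25% in these data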;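 also: 0% = plate neutral control median and 100% = total signal loss; the record names both 10 and 1 µM as test concentration; the first replicate is given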
Target sequence (P42568 whole entry, looked up): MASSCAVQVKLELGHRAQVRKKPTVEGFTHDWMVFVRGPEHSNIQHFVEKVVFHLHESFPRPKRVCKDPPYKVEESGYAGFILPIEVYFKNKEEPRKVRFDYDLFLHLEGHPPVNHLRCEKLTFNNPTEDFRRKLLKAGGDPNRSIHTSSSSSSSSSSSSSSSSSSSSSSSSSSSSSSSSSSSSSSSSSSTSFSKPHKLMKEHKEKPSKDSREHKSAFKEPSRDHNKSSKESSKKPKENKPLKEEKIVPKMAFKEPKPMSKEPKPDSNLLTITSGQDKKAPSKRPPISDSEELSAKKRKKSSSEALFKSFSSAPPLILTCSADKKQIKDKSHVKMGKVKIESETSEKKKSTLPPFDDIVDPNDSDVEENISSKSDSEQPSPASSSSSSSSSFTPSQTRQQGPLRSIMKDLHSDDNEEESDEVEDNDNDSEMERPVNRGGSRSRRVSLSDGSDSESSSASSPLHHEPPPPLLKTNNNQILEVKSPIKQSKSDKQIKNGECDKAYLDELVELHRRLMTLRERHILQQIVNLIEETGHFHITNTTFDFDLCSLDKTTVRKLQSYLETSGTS
Ecoli rRNA inh OD600: further read-out of Ecoli rRNA inh, marked with its call; OD600 change, %; measured here: OD600 growth;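 optical density of the mix in the first replicate; 0 = DMSO median and -100 = no signal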
Ecoli rRNA inh RFP: second read-out of Ecoli rRNA inh, no call of its own (marks repeat the call); RFP signal change, %; measured here: RFP humanized mutant strains;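 first replicate; 0 = DMSO median and -100 = no signal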
Active calls of the source: *; i = inactive; / = not tested or not shown. Not all compounds are listed. The share of hits here may be higher or lower than overall.

SMILES	Bfl-1 A1 inh	T cruzi inh	FGF22 binding	Ecoli rRNA inh	Ecoli rRNA inh OD600	Ecoli rRNA inh RFP	E coli growth	UCH37 DUB inh	Beta apoptosis	AF4-AF9 inh
CCOC(=O)N1CCN(c2c(N3CCOCC3)c(=O)c2=O)CC1	0.5	-11.5	i	7.1	10.6	0.0	0.73	8.5	-5.0	1.9
Cc1csc(=NC(=O)c2ccccc2)n1Cc1ccco1	0.8	9.1	i	-22.8	-21.1	3.4	0.692	-22.7	-10.1	7.2
C=CCc1c(C)nc(-c2ccccc2)nc1N/N=C(\C)c1ccccc1	0.5	12.8	i	2.2	0.0	1.1	/	/	-6.1	3.6
CC[C@@]1(C(=O)OC)N[C@H](CN(C)C(=O)COc2ccccc2)[C@@H]2C(=O)N(C)C(=O)[C@@H]21	/	/	i	10.6	7.9	1.0	0.694	2.7	/	1.4
O=C(Nc1cccc(F)c1)C1C2C=CC3(CN(CCCN4CCOCC4)C(=O)C13)O2 (stereo not given)	/	-0.5	i	3.2	8.9	0.8	0.732	0.9	-2.6	-12.6
Cc1oc(-c2ccc(Cl)cc2)nc1CS(=O)CC(=O)NC1CCCCCC1 (stereo not given)	1.0	7.0	i	-15.8	-11.8	-7.5	0.63	1.9	-3.2	2.0
O=C(Cn1nnc(-c2ccc(Cl)cc2)n1)N1CCN(C(=O)c2ccco2)CC1	1.6	/	i	-1.4	-4.7	0.0	0.696	-0.5	-1.3	1.2
CC(C)C1Nc2ccc(C(=O)NC3CCCCC3)cc2NC1=O (stereo not given)	-0.1	-18.8	/	/	/	/	0.712	0.2	0.7	/
Cc1ccc(S(=O)(=O)NCCC(=O)NCC(c2ccc(F)cc2)N2CCOCC2)cc1 (stereo not given)	0.4	/	i	1.2	-1.7	-3.7	0.721	1.7	-1.9	-1.0
O=C(NCc1cccc(Cl)c1)c1cc(=O)[nH]c2ccccc12	0.3	5.0	i	4.4	9.3	-3.2	0.707	-31.1	-6.9	2.4
CCn1c(SCC(=O)Nc2cc(C)ccc2C)nnc1-c1cnccn1	-0.2	-18.4	/	/	/	/	0.636	-1.0	5.3	/
COc1ccc(C(=O)NNC(=O)C(NC(=O)c2cc(OC)cc(OC)c2)C(C)C)cc1 (stereo not given)	-0.2	/	i	4.6	3.9	1.5	0.719	1.2	4.1	-3.0
CCOc1ccc2nc(SCc3ccc(C(=O)OC)o3)[nH]c2c1	-0.4	7.9	/	/	/	/	0.713	1.6	-0.6	/
Fc1cnc(N2CCOCC2)nc1NCc1ccccc1	0.8	3.4	/	/	/	/	0.651	1.9	-6.5	/
O=S(=O)(c1cccc2nsnc12)N1CCCCC1	-0.9	-5.9	i	11.1	8.9	2.3	0.718	2.1	-6.8	1.6
CCN(CC)S(=O)(=O)c1cc(Br)c(C)cc1OC	0.3	5.6	/	/	/	/	0.796	1.2	-7.9	/
CCOC(=O)c1c2ccccc2[n+]([O-])n1[C@@H](C)C(N)=O	0.2	-16.9	i	-0.3	-1.9	-1.7	/	32.3*	-0.4	-3.5
COc1cc(OC)cc(-c2c(-c3cccs3)c3cc(-c4cnc(N)nc4)ccc3n2C)c1	-0.6	/	i	18.1	20.1	0.3	0.714	-0.5	0.0	0.5
COc1ccc(C(C(=O)NCC2CCCO2)N(Cc2cccs2)C(=O)c2snc(C(N)=O)c2N)cc1 (stereo not given)	-0.4	-9.1	i	4.5	13.6	-0.8	0.707	-50.7	-3.0	0.1
CCOc1ccc(N(CC(=O)NC2CCCCC2C)S(=O)(=O)c2c(C)noc2C)cc1 (stereo not given)	-0.1	21.0	i	-2.0	-0.9	-1.8	0.684	5.2	-4.1	-1.2
Cc1[nH]c2ccccc2c1C(=O)CSc1nc2cc(S(=O)(=O)N3CCCCC3)ccc2o1	0.2	56.7*	/	/	/	/	0.744	1.8	28.6	/
CN(Cc1ccc(Cl)cc1Cl)C(=O)CCNC(=O)c1ccco1	-0.3	/	i	-1.7	-8.5	-2.2	/	/	-7.8	-1.4
O=C(Nc1ccc2ccccc2c1)c1cn(-c2ccccc2)nc1-c1cccs1	-0.4	59.5*	/	/	/	/	0.741	-4.5	15.9	/
COc1cc(C=O)ccc1OC(=O)N1CCOCC1	0.8	-1.7	i	6.9	8.3	-6.6	0.637	4.3	-2.6	-5.1
O=C(NCCCN1CCCC1)[C@H](CSCc1ccccc1)N1Cc2ccccc2C1=O	0.4	-21.5	i	7.0	-5.6	1.0	0.694	4.8	-5.0	1.5
COc1ccc(NC(=O)c2cc([N+](=O)[O-])ccc2O)cc1	-8.2	-21.9	/	-60.8	-79.0	-22.3	0.527	11.8	56.7	1.0
Cc1ccc(S(=O)(=O)N2CCOCC2)cc1C(=O)Nc1nc2ccccc2[nH]1	0.1	-3.9	/	/	/	/	0.748	6.1	-0.5	/
CC1(C)Cc2cccc(OCC(=O)OCC(=O)Nc3cccc(S(N)(=O)=O)c3)c2O1	0.2	0.8	i	0.8	5.4	-6.7	0.664	0.1	-1.8	-4.1
Cc1cccc(-n2c(SCC(=O)c3c(N)n(C4CC4)c(=O)[nH]c3=O)nnc2N2CCOCC2)c1	-0.1	/	i	11.7	10.5	-2.5	0.691	2.4	-5.6	0.8
Cc1cc(C)cc(-n2cnc3cc(C(=O)O)ccc32)c1	0.8	9.4	/	/	/	/	0.644	1.3	/	/
CSc1nc(-c2ccco2)nn1C(=O)c1ccccc1	-0.2	-6.8	/	/	/	/	0.773	-3.7	-6.8	/
O=C(Cn1cc(C(F)(F)F)cc(Cl)c1=O)Nc1cc(S(=O)(=O)N2CCOCC2)ccc1Cl	0.9	-1.4	i	-10.2	-9.1	5.8	0.689	-1.2	0.7	0.5
COc1ccccc1-c1nnc(Nc2nc3c(OC)cccc3s2)o1	-10.1	62.8*	/	/	/	/	0.673	-489.1	72.2	/
O=C(Nc1cccc(S(=O)(=O)N2CCOCC2)c1)C1=NN(c2ccccc2)C(=O)CC1	0.8	-0.8	i	-3.9	-0.6	-2.4	0.707	4.1	-1.4	-0.8
O=C(COC(=O)c1cc[n+]([O-])cc1)Nc1cccc(Br)c1	/	/	i	-3.2	0.0	-2.0	0.617	1.4	/	-1.0
O=C(NCc1cccs1)c1ccccc1C(=O)NCc1cccs1	1.0	-11.3	/	/	/	/	0.737	4.7	-6.4	/
O=C(Nc1ccc2c(c1)S(=O)(=O)N=C1CCCCCN12)c1ccccc1Cl	0.4	15.5	i	1.2	0.8	0.1	0.609	-0.2	3.4	-6.6
O=C(Nc1ccc(Oc2cccnc2)cc1)C1CCN(Cc2cc(Cl)ccc2O)CC1	-0.7	-16.5	i	-2.3	-21.3	14.4	0.652	3.0	-7.5	0.9
O=C(Nc1sc2c(c1C(=O)O)CCCCC2)c1ccccc1	-11.1	2.4	i	-38.8	-46.9	-23.4	0.692	4.6	5.7	-3.4
Cc1ccc(C(c2ccc(C)o2)c2cccc([N+](=O)[O-])c2O)o1	0.5	-13.8	/	-12.1	-1.6	0.4	0.724	4.5	-6.0	/

With a hit mark in UCH37 DUB inh, among the entries above:
SMILES	FGF22 binding	Ecoli rRNA inh	Ecoli rRNA inh OD600	Ecoli rRNA inh RFP	E coli growth	UCH37 DUB inh	AF4-AF9 inh
CCOC(=O)c1c2ccccc2[n+]([O-])n1[C@@H](C)C(N)=O	i	-0.3	-1.9	-1.7	/	32.3*	-3.5

Next section.
SMILES	Bfl-1 A1 inh	T cruzi inh	FGF22 binding	Ecoli rRNA inh	Ecoli rRNA inh OD600	Ecoli rRNA inh RFP	E coli growth	UCH37 DUB inh	Beta apoptosis	AF4-AF9 inh
CCSc1cc(N2CCCC2)nc(-c2ccccc2)n1	0.1	21.4	/	/	/	/	0.731	4.9	3.7	/
CC(c1ccco1)N(C(=O)c1ccc(C(F)(F)F)cc1)c1ccccn1 (stereo not given)	-4.9	-0.7	i	-0.7	1.9	0.3	0.724	3.8	-4.2	2.6
CC1CCN(S(=O)(=O)c2ccc3c(c2)CC(C)N3C(=O)C2CCC2)CC1 (stereo not given)	2.2	3.7	i	-19.2	-16.4	-0.3	0.695	5.1	13.7	1.0
CC(C)(C)C(=O)/C(=C/c1ccc(Cl)cc1)n1cncn1	1.1	17.9	i	4.0	1.9	2.6	0.682	2.3	-52.2	0.4
O=C(Nc1ccnn1C1CCN(Cc2ccc(O)c(Cl)c2)CC1)C1CCCC1	0.0	-2.0	i	9.2	0.4	0.9	0.706	-1.0	1.4	2.8
COCCN(C(=O)c1csnn1)C(C(=O)NC1CCCC1)c1ccc(C)cc1 (stereo not given)	-0.2	-9.9	i	/	/	/	0.62	0.2	3.5	1.1
CC(=O)NCc1ccc2[nH]c(C)cc2c1	-0.5	-7.9	i	-3.8	4.8	-2.2	0.707	1.1	1.6	5.6
Cc1ccc(S(=O)(=O)Oc2ccccc2/C=C2\SC(=O)NC2=O)cc1	0.4	-19.6	i	-42.4	-65.6	-13.2	0.653	2.4	6.2	-2.7
CC(O)CNc1ccc(-c2nn(C)c(=O)c3ccccc23)cc1[N+](=O)[O-] (stereo not given)	0.6	0.1	i	1.6	-0.1	0.7	0.69	8.4	-5.8	-1.0
CCOc1cc(C(=O)N2CCC3(CC2)NCCc2[nH]cnc23)cc(OCC)c1OCC	2.3	0.4	i	10.9	4.1	1.7	0.709	2.4	-3.2	0.3
CN(C)C1N(C(=O)c2ccccc2)N=C2c3ccccc3S(=O)(=O)N21 (stereo not given)	0.0	-5.2	i	1.4	0.5	-2.0	0.672	2.3	-3.4	-1.5
CC(CCCN(C)C)C(Cc1ccccc1)c1ccccc1 (stereo not given)	1.0	29.7	i	-47.5*	-28.4*	-9.9*	0.637	3.4	-1.0	7.4
Cc1cccc(N2CCN(CC(O)COc3ccccc3)CC2)c1 (stereo not given)	/	/	i	-1.4	0.3	2.4	0.649	2.7	/	1.9
Cc1ccc(CC(=O)Nc2nnc(-c3ccc(F)cc3)o2)c(C)c1	1.0	-2.9	/	/	/	/	0.689	1.1	-5.8	/
COc1cccc(NC(=O)Nc2c(C)n(C)n(-c3ccccc3)c2=O)c1	-0.5	-2.9	/	/	/	/	0.664	-0.4	-0.4	/
Cc1cccc(C)c1-n1nnnc1SCSc1nnnn1-c1c(C)cccc1C	1.3	-1.5	/	/	/	/	0.706	3.0	-1.6	/
COc1ccc(N2C(=O)c3ccccc3NC2c2ccc(OC)c(COc3ccccn3)c2)cc1 (stereo not given)	0.4	6.0	/	/	/	/	0.696	-40.3	7.5	/
O=C(NC(=S)Nc1ccccc1)C1CCCCC1	0.6	-13.5	i	4.2	5.0	1.1	0.723	-2.2	-0.7	-0.1
COc1ccccc1C(=O)CN1C(=O)NC2(CCCc3ccccc32)C1=O (stereo not given)	1.8	/	i	/	/	/	0.713	3.0	-12.1	-2.0
Cn1c(-c2ccc(Br)o2)nc2ccccc21	-7.6	14.7	/	/	/	/	0.685	5.5	30.2	/
CCCC(=O)Nc1ccc2c(c1)c1ccccc1n2CC	2.5	13.8	i	/	/	/	0.69	0.9	0.5	-2.6
O=C1C2CCCN2C(=S)N1c1ccccc1 (stereo not given)	0.7	-10.1	i	-2.4	8.6	-6.4	0.671	1.7	-2.2	0.7
